High-throughput results: PubChem BioAssay, Johns Hopkins Ion Channel Center
KCNQ2 inh = KCNQ2 channel blockers in CHO-K1 cells – cell-based, FluxOR thallium flux, B-score, primary screen (AID 2156). 20 min; active compounds read low; only compounds with negative scores are shown here; some inactives read as strong as hits. O88943. B-score at 10 µM. hit rate 1.1% among 310,000;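 active = fluorescence ratio B-score at most minus 3 library SDs, with starting brightness B-score within 2 library SDs, cut at about -5.5 in these data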
Target sequence (O88943 whole entry, looked up): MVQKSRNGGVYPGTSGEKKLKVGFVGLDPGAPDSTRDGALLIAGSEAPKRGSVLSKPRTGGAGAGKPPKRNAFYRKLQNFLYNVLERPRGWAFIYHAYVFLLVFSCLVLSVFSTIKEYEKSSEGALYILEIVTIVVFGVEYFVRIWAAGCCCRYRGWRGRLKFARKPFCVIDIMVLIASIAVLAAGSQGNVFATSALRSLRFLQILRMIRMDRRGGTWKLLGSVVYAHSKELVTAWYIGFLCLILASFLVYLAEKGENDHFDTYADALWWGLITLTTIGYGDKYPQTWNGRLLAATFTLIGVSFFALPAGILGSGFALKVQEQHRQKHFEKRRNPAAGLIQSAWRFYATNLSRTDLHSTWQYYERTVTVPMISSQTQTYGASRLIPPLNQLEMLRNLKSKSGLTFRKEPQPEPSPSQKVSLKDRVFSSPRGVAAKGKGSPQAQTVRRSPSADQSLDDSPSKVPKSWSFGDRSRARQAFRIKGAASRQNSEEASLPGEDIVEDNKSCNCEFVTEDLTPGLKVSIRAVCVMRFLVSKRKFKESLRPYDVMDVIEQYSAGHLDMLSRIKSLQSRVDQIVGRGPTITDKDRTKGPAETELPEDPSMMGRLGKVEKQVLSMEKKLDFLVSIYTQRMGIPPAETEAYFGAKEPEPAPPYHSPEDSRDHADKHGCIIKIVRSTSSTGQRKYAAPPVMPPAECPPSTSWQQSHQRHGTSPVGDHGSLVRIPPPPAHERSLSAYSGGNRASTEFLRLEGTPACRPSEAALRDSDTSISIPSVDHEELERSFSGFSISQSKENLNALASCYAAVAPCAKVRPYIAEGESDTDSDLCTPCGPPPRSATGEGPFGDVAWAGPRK
KCNQ2 inh baseline = further read-out of KCNQ2 inh, marked with its call; B-score; measured here: initial fluorescence intensity artifact check;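 brightness before thallium and not channel activity; 0 = typical well and far values either way flag optical interference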
An asterisk follows results filed as active; i = inactive. Only part of the results is shown (hit frequency here may not be typical).

CC(=O)N(c1nc(CCl)cs1)c1c(C)cc(C)cc1C
  KCNQ2 inh: i
  KCNQ2 inh baseline: -0.54

COc1ccc(-c2cn3cc(C(=O)NN)ccc3n2)cc1
  KCNQ2 inh: i
  KCNQ2 inh baseline: -0.79

COc1ccc(S(=O)(=O)Nc2noc3ccccc23)cc1OC
  KCNQ2 inh: i
  KCNQ2 inh baseline: -0.61

OCCC1CN(Cc2cnc(-c3ccccc3)s2)CCN1C1CCCCC1 (stereo not drawn)
  KCNQ2 inh: i
  KCNQ2 inh baseline: -0.06

O=C(NCCn1cc(SCC(=O)N2CCOCC2)c2ccccc21)c1ccccc1
  KCNQ2 inh: i
  KCNQ2 inh baseline: 1.5

Cc1ccc(OCC(=O)NCCNC(=O)c2ccncc2)cc1
  KCNQ2 inh: i
  KCNQ2 inh baseline: -0.02

CCn1cc(-c2csc(N)n2)c(C)n1
  KCNQ2 inh: i
  KCNQ2 inh baseline: -1.1

CCOCCCNC(=O)C(NC(=O)Cc1c[nH]c2ccccc12)c1ccc(OC)cc1 (stereo not drawn)
  KCNQ2 inh: i
  KCNQ2 inh baseline: 0.81

CN(CCOc1ccccc1)S(=O)(=O)c1ccc2oc3ccccc3c2c1
  KCNQ2 inh: -7.8*
  KCNQ2 inh baseline: -0.37*

COc1ccc(S(=O)(=O)N2CCN(C/C=C/c3ccccc3)CC2)cc1NC(C)=O
  KCNQ2 inh: i
  KCNQ2 inh baseline: 0.21

COc1ccc(C(C#N)Nc2ccc(C)cc2)cc1 (stereo not drawn)
  KCNQ2 inh: i
  KCNQ2 inh baseline: 1.6

NC(=O)c1cc(NC(=O)c2ccc(NS(=O)(=O)c3cccs3)cc2)cc(C(N)=O)c1
  KCNQ2 inh: i
  KCNQ2 inh baseline: 0.92

COc1ccccc1C(=O)NCCOc1ccc(C(C)(C)C)cc1
  KCNQ2 inh: -5.8*
  KCNQ2 inh baseline: -0.32*

N#Cc1c(F)cccc1NCc1cccs1
  KCNQ2 inh: i
  KCNQ2 inh baseline: -0.04

C/C(CC(=O)Nc1cc(C)ccn1)=N\NC(=O)c1cccc(F)c1
  KCNQ2 inh: i
  KCNQ2 inh baseline: -1.1

CCOC(=O)C1CCN(Cc2nnc(-c3ccccc3C)o2)CC1
  KCNQ2 inh: i
  KCNQ2 inh baseline: 0.31

O=C(C1CCCN(c2nnc(-n3cccc3)s2)C1)N1CCN(c2ccccc2)CC1 (stereo not drawn)
  KCNQ2 inh: i
  KCNQ2 inh baseline: -3.7

O=c1cc(N2CCc3ccccc3C2)[nH]c(=O)n1-c1ccc(Br)cc1
  KCNQ2 inh: i
  KCNQ2 inh baseline: -2.5

CC(CN1CCOCC1)OC(=O)c1ccc(Cl)cc1Cl (stereo not drawn)
  KCNQ2 inh: i
  KCNQ2 inh baseline: 0.72

CCc1ccc(NC(=O)N(CCN2CCOCC2)Cc2ccc3c(c2)CCCN3CC)cc1
  KCNQ2 inh: i
  KCNQ2 inh baseline: -1.6

CCOc1ccc2[nH]c(SCC(=O)OC)c([N+](=O)[O-])c2c1
  KCNQ2 inh: i
  KCNQ2 inh baseline: 1.1

CCCN1CCN(C(c2cc3cc4c(cc3[nH]c2=O)OCO4)c2nnnn2C(C)(C)C)CC1 (stereo not drawn)
  KCNQ2 inh: i
  KCNQ2 inh baseline: 0.72

Cc1ccc(C(O)(c2ccccc2)c2ccccc2C(C)N(C)C)c(C)c1 (stereo not drawn)
  KCNQ2 inh: -8.9*
  KCNQ2 inh baseline: 0.16*

CCCCc1ccc(NC(=O)CSc2nc(=O)n(CCN(CC)CC)c3c2CCCC3)cc1
  KCNQ2 inh: i
  KCNQ2 inh baseline: -0.89

OCCN1CCN(CC(O)COCC2COc3ccccc3O2)CC1 (stereo not drawn)
  KCNQ2 inh: i
  KCNQ2 inh baseline: -0.1

COC(=O)Cc1[nH]n(-c2nc3ccccc3s2)c(=O)c1C(C)=Nc1ccc(C)cc1
  KCNQ2 inh: i
  KCNQ2 inh baseline: 0.5

FC(F)Sc1nc(-c2ccccc2)c(-c2ccccc2)n1C(F)F
  KCNQ2 inh: i
  KCNQ2 inh baseline: 0.05

Cc1ccc(C)c(NCc2n[nH]c(=S)n2-c2ccccc2)c1
  KCNQ2 inh: i
  KCNQ2 inh baseline: 0.62

CCO[C@@H]1OC(C(=O)NCc2nc3ccccc3[nH]2)=C[C@H](C2CCCCC2)[C@H]1CCCO
  KCNQ2 inh: i
  KCNQ2 inh baseline: -0.27

CCCOc1cccc(OCCSc2nc(C)cc(=O)[nH]2)c1
  KCNQ2 inh: i
  KCNQ2 inh baseline: 0.83

Cc1nc2ccccc2c(=O)n1-c1ccc(NS(=O)(=O)c2ccc(F)cc2)cc1
  KCNQ2 inh: i
  KCNQ2 inh baseline: 0.53

O=C(CCC(=O)N1CCN(c2ccc(Cl)c(Cl)c2)CC1)c1ccccc1
  KCNQ2 inh: i
  KCNQ2 inh baseline: -0.16

O=C1c2ccccc2NC(c2ccc3c(c2)OCCO3)N1c1ccc2c(c1)OCCO2 (stereo not drawn)
  KCNQ2 inh: i
  KCNQ2 inh baseline: -0.58

CCOC(=O)c1c(-c2ccc(C)cc2)csc1NC(=O)CCN1CC(C)OC(C)C1 (stereo not drawn)
  KCNQ2 inh: i
  KCNQ2 inh baseline: 1.5

O=C(NCCS(=O)(=O)NCc1ccc2c(c1)OCO2)c1ccccc1
  KCNQ2 inh: i
  KCNQ2 inh baseline: -1

O=C(CC1CCC1)NC(c1ccccc1)c1ccccc1
  KCNQ2 inh: i
  KCNQ2 inh baseline: -1.5

COc1cc(C#N)c(NC(=O)CN2CCN(CCO)CC2)cc1OC
  KCNQ2 inh: i
  KCNQ2 inh baseline: 0.02

CCOc1ccc(OCc2ccc(C(=O)NCc3ccncc3)o2)cc1
  KCNQ2 inh: i
  KCNQ2 inh baseline: -0.07

CSc1cccc(NC(=O)c2[nH]c(C)c(C(C)=O)c2C)c1
  KCNQ2 inh: i
  KCNQ2 inh baseline: -2.4

CC1CCN(CC(=O)c2cccs2)CC1
  KCNQ2 inh: i
  KCNQ2 inh baseline: 1.3

COc1cccc(N2CCN(c3ccc4nnc(CCC(=O)Nc5ccc(F)cc5)n4n3)CC2)c1
  KCNQ2 inh: i
  KCNQ2 inh baseline: -0.49

O=C(CCN1C(=O)C2CC=C(Cl)CC2C1=O)N1CCCCC1 (stereo not drawn)
  KCNQ2 inh: i
  KCNQ2 inh baseline: -0.01

O=C(O)Cc1ccc(C(=O)c2ccc(Cl)cc2)s1
  KCNQ2 inh: i
  KCNQ2 inh baseline: 0.16

Cc1c(C)n(C(=O)CN2CCC(C(N)=O)CC2)c2ccccc12
  KCNQ2 inh: i
  KCNQ2 inh baseline: 0.94

O=C(CSc1nnc2ccccn12)NCCN1C(=O)CSC1=O
  KCNQ2 inh: i
  KCNQ2 inh baseline: -0.31

CCOC(=O)c1c(-c2ccccc2)csc1NC(=O)CSc1nnc(C)s1
  KCNQ2 inh: i
  KCNQ2 inh baseline: 0.87

N#Cc1c[nH]n2c(=O)c3c(nc12)CCC3
  KCNQ2 inh: i
  KCNQ2 inh baseline: -0.61

CC(=O)c1c(C)[nH]c(C(=O)COC(=O)c2cc(S(=O)(=O)N(C)c3ccccc3)ccc2Cl)c1C
  KCNQ2 inh: i
  KCNQ2 inh baseline: 0.59

Cn1c(Cl)cnc1C(O)(c1ccccc1)c1ccccc1
  KCNQ2 inh: i
  KCNQ2 inh baseline: 1.2

CN(C)S(=O)(=O)c1cccc(-c2csc(=Nc3ccccc3)n2CCCN2CCOCC2)c1
  KCNQ2 inh: i
  KCNQ2 inh baseline: 1.7

CCn1nc(C)c(Br)c1-c1nc(-c2ccc(C)cc2)no1
  KCNQ2 inh: i
  KCNQ2 inh baseline: -2.1

O=C(NCc1cccs1)C(=O)NCC1OCCCN1S(=O)(=O)c1ccc(F)cc1 (stereo not drawn)
  KCNQ2 inh: i
  KCNQ2 inh baseline: 0.46

Nn1c(SCc2cccc(Br)c2)nnc1-c1ccncc1
  KCNQ2 inh: i
  KCNQ2 inh baseline: -0.02

Cc1cc(C=O)c(C)n1-c1cc(C(F)(F)F)ccc1N1CCOCC1
  KCNQ2 inh: i
  KCNQ2 inh baseline: 1.4

Cc1nn(CC(=O)N2CCOCC2)c(=O)c2c1sc1ccccc12
  KCNQ2 inh: i
  KCNQ2 inh baseline: 2

Cc1cc(C)n(-c2ccc(C(=O)Nc3sccc3C(N)=O)cc2)n1
  KCNQ2 inh: i
  KCNQ2 inh baseline: -1.2

CSC(=NC#N)N1CCN(c2cccc(Cl)c2)CC1
  KCNQ2 inh: i
  KCNQ2 inh baseline: -0.54

CSC(=NC(C)c1ccccc1)NS(=O)(=O)c1cccs1 (stereo not drawn)
  KCNQ2 inh: i
  KCNQ2 inh baseline: -1.4

COC(=O)c1ccc(CSc2nnc(NC(C)C)s2)cc1
  KCNQ2 inh: i
  KCNQ2 inh baseline: 0.36

Cc1nnc(SC(C)C(=O)NCC2CCCO2)n1-c1ccccc1 (stereo not drawn)
  KCNQ2 inh: i
  KCNQ2 inh baseline: 0.69

CC(=O)Nc1ccc(S(=O)(=O)N2CCC(Oc3ccc(-n4cnnn4)cc3)CC2)cc1
  KCNQ2 inh: i
  KCNQ2 inh baseline: -0.67

COc1ccc(/C=N\NC(=O)c2c(C)nc3ccc(Br)cn23)cc1
  KCNQ2 inh: i
  KCNQ2 inh baseline: -1.3

O=C(NC(Cc1ccccc1)C(=O)O)NC12CC3CC(CC(C3)C1)C2 (stereo not drawn)
  KCNQ2 inh: i
  KCNQ2 inh baseline: -0.4

CN1C(=O)/C(=C/c2ccc(OC(=O)c3ccco3)cc2)SC1=S
  KCNQ2 inh: i
  KCNQ2 inh baseline: -1.6

O=C(CSc1nnc(Cc2ccccc2)n1C1CCCCC1)N1CCOCC1
  KCNQ2 inh: i
  KCNQ2 inh baseline: -0.74

Cc1cc2cc(CN(Cc3ccc4c(c3)OCO4)Cc3nnnn3C3CCCC3)c(=O)[nH]c2cc1C
  KCNQ2 inh: i
  KCNQ2 inh baseline: -1

CCCc1c(C)nc2ccc(OC)cc2c1SCCC(=O)O
  KCNQ2 inh: i
  KCNQ2 inh baseline: 0.68

COC(=O)c1ccc(=O)n(CC(=O)c2ccc(Cl)cc2)c1
  KCNQ2 inh: i
  KCNQ2 inh baseline: 2.6

COc1ccc(NC(=O)CN2CCOCC2)cc1
  KCNQ2 inh: i
  KCNQ2 inh baseline: 0.17

Of the compounds above, 13 contain an aryl thioether with sulfur outside any ring.
O=C(NCCn1cc(SCC(=O)N2CCOCC2)c2ccccc21)c1ccccc1
  KCNQ2 inh: i
  KCNQ2 inh baseline: 1.5

CCOc1ccc2[nH]c(SCC(=O)OC)c([N+](=O)[O-])c2c1
  KCNQ2 inh: i
  KCNQ2 inh baseline: 1.1

CCCCc1ccc(NC(=O)CSc2nc(=O)n(CCN(CC)CC)c3c2CCCC3)cc1
  KCNQ2 inh: i
  KCNQ2 inh baseline: -0.89

FC(F)Sc1nc(-c2ccccc2)c(-c2ccccc2)n1C(F)F
  KCNQ2 inh: i
  KCNQ2 inh baseline: 0.05

CCCOc1cccc(OCCSc2nc(C)cc(=O)[nH]2)c1
  KCNQ2 inh: i
  KCNQ2 inh baseline: 0.83

CSc1cccc(NC(=O)c2[nH]c(C)c(C(C)=O)c2C)c1
  KCNQ2 inh: i
  KCNQ2 inh baseline: -2.4

O=C(CSc1nnc2ccccn12)NCCN1C(=O)CSC1=O
  KCNQ2 inh: i
  KCNQ2 inh baseline: -0.31

CCOC(=O)c1c(-c2ccccc2)csc1NC(=O)CSc1nnc(C)s1
  KCNQ2 inh: i
  KCNQ2 inh baseline: 0.87

Nn1c(SCc2cccc(Br)c2)nnc1-c1ccncc1
  KCNQ2 inh: i
  KCNQ2 inh baseline: -0.02

COC(=O)c1ccc(CSc2nnc(NC(C)C)s2)cc1
  KCNQ2 inh: i
  KCNQ2 inh baseline: 0.36

Cc1nnc(SC(C)C(=O)NCC2CCCO2)n1-c1ccccc1 (stereo not drawn)
  KCNQ2 inh: i
  KCNQ2 inh baseline: 0.69

O=C(CSc1nnc(Cc2ccccc2)n1C1CCCCC1)N1CCOCC1
  KCNQ2 inh: i
  KCNQ2 inh baseline: -0.74

CCCc1c(C)nc2ccc(OC)cc2c1SCCC(=O)O
  KCNQ2 inh: i
  KCNQ2 inh baseline: 0.68
